Screens deposited in PubChem BioAssay by ICCB-Longwood Screening Facility, Harvard Medical School.
CapD inh: blocks the Bacillus anthracis CapD enzyme. purified CapD enzyme, fluorescence intensity read-out; hits give low values; some hits fall short of the stated cut. z-score (no concentration beside the values). 0.23% of 140,000 active. AID 492967;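 active = z-score under -4 in either of two replicates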;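 also: stock transfer was 100 nL into about 40 µL; score is relative to mean and spread of the plate; one replicate is shown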
AID504770: growth inhibitors of E. coli YBA685 in a screen for V. cholerae RctB (chromosome II replication) inhibitors | z-score (test concentration not listed) | E. coli YBA685 rctB-dependent plasmid, OD600 growth, 3 h; hits give low values | 0.27% of 130,000 active | AID 504770;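 active = z-score under -2 on both plates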;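 also: wells of about 30 µL received 100 nL stock; score is relative to mean and SD of the test wells; the first replicate is given; strong numbers were not always called active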
* hit, by the source's call; . = not tested or not shown.

SMILES	CapD inh	AID504770
C=C(C)[C@@H]1CC[C@]2(C(=O)O)CC[C@]3(C)[C@H](CC[C@@H]4[C@@]5(C)CC[C@H](O)C(C)(C)[C@@H]5CC[C@]43C)[C@@H]12	0.1	.
CCN(CC)S(=O)(=O)c1ccc(-c2cn3cc(Cl)ccc3n2)cc1	10	.
O=c1[nH]c(=O)n(C2CC(O)C(CO)O2)cc1I (stereo not drawn)	6.2	.
COc1cc(C2C3=C(CC(c4ccco4)CC3=O)Nc3ccccc3N2C(=O)C2CC2)cc(OC)c1OC (stereo not drawn)	2.4	-1.6
Cc1ccc(NC(=O)c2sc3ncn(CC(=O)Nc4cccc(C(F)(F)F)c4)c(=O)c3c2C)c(Br)c1	-0.025	.
CNC(=O)COc1ccc(-c2nn(C)c(=O)c3ccccc23)cc1	-0.29	1.5
COC(=O)c1cccc(-c2ccc(/C=C3\SC(=N)N(c4nccs4)C3=O)o2)c1	0.18	.
Cc1n[nH]c(C)c1C12CC3CC(CC(CC(=O)O)(C3)C1)C2	.	-0.3
CCOC(=O)C1=C(C)NC2=C(C(=O)C(C(=O)OCC)C(c3cccc(OC)c3)C2)C1c1cc(OC)c(OC)c(OC)c1 (stereo not drawn)	9.4	.
Cc1cc(C(F)(F)F)nn1Cc1ccc(C(=O)NCc2ccco2)o1	-0.5	0.15
CSC(SC)=C(C#N)C(=O)c1ccoc1C	-1.2	1.4
COc1ccccc1C1(CC(=O)O)CCOC(C(C)C)C1 (stereo not drawn)	-0.03	-0.65
O=S(=O)(NC1CCN(Cc2ccccc2)C1)c1ccc(Br)cc1OC(F)(F)F (stereo not drawn)	-0.21	.
CC1(C)Nc2ccccc2-c2c1ssc2=Nc1cc(Cl)cc(Cl)c1	-0.18	.
CSc1nc(N)nc(CSc2ccccc2)n1	-0.54	1.9
O=C(O)c1cc2ccccc2c(Cc2cc3ccccc3c(C(=O)O)c2O)c1O (tested in a mixture with another compound)	-0.35	.
COc1ccccc1NC1CCS(=O)(=O)C1 (stereo not drawn)	0.14	-0.15
CN(C)c1nc(-c2ccccc2)nc(-c2ccccc2)c1C#N	0.86	0.55
CCC(Sc1nnc2c3ccccc3n(CC)c2n1)C(=O)Nc1ccc(S(N)(=O)=O)cc1 (stereo not drawn)	-0.07	1.4
CCOC(=O)C1C(=O)C=C(Nc2ccc(Br)cn2)CC1c1cccc(OC)c1 (stereo not drawn)	2	-0.65
Cc1cc(=O)oc2cc(OCC(=O)NCc3cccnc3)ccc12	0.46	-0.25
Cc1cc(Cl)nc(N)n1	.	-0.5
CCOC(=O)c1noc2ncnc(N(CC)c3ccccc3)c12	-0.44	0.4
O=C(Nc1ccc(Br)cc1C(=O)c1ccccc1)c1cc2cc([N+](=O)[O-])ccc2s1	-1.2	.
N#CC1=C(N)C(C#N)(C#N)C2(C(=O)Nc3ccccc32)C2CN(Cc3ccccc3)CC=C12 (stereo not drawn)	-0.04	.
FC(F)=C(F)CCSc1ncn[nH]1	-0.53	-1.3
O=C(O)c1cccc(O)c1	0.32	-0.7
Fc1ccc2[nH]cc(CCCN3CCN(c4nc5cc(Cl)ccc5s4)CC3)c2c1	-0.015	-0.5
CCOC(=O)N1CCN(c2cc(NCCCC(=O)O)c3c4c(onc24)-c2ccccc2C3=O)CC1	-0.74	6
N#CC(c1ccccc1Cl)N1CCOCC1 (stereo not drawn)	-0.13	-0.2
Cc1ccccc1OCCCCS	-0.81	1.8
CC1OC(NC(=O)c2ccccc2F)C(NC(=O)c2ccccc2F)OC1C (stereo not drawn)	0.29	0
Cc1cc(NC(=O)C2C3C(=O)N(c4ccccc4Cl)C(C(=O)NC(C)(C)C)C34C=CC2(C)O4)no1 (stereo not drawn)	.	2
Cc1cc(C)nc(SC(C)C(=O)Nc2ccc(S(N)(=O)=O)cc2)n1 (stereo not drawn)	1	-0.9
Clc1ccc(-c2ccnc3nncn23)cc1	63	-0.2
O=C1c2ccccc2-c2nc3cc(C(F)(F)F)ccc3nc21	-0.6	.
Cc1cc(N=CN(C)C)c2ccccc2n1	35	.
COc1ccc(CN2C(=S)N(c3ccccc3)C(=O)C2CC(=O)Nc2ccccc2)cc1 (stereo not drawn)	4.5	-0.05
CCNc1sc(S(C)(=O)=O)nc1S(=O)(=O)c1ccc(C)cc1	.	-0.7
CC1C(=O)CCN(C2CC2)C1C (stereo not drawn)	-1	-0.7
CNC1(c2nnnn2CCOC(=O)Nc2ccc(Cl)cc2)CCCC1	0.02	0.7
CC1c2ccsc2CCN1S(=O)(=O)c1cccs1 (stereo not drawn)	-0.04	-0.05
CCOc1ccc(-c2cc3ccc(N(CC)CC)cc3oc2=O)cc1	0.57	3.2
COc1ccc(S(=O)(=O)N2CCCCCC2)cc1C(=O)N(Cc1nnc(-c2ccccc2Cl)o1)C(C)C	.	-1.8
CC1c2[nH]c3ccccc3c2CCN1S(C)(=O)=O (stereo not drawn)	-0.37	0.25
CC(C)CSc1nnc2c(n1)[nH]c1ccccc12	-0.44	.
CN(C1CCCCC1)S(=O)(=O)c1ccccc1N=Cc1c(O)[nH]c(=O)[nH]c1=O	.	-0.65
CC(C)N(C)C1CCN(C(=S)Nc2ccccc2Cl)CC1	0.2	-0.5
FC(F)=C(F)CCSc1nc2nccc(-c3ccc(F)cc3)n2n1	4.8	.
COc1ccc(C2C(CN3CCOCC3)C(=O)N2c2ccccc2)cc1 (stereo not drawn)	-0.045	.
Next section:
SMILES	CapD inh	AID504770
Cc1ccc(-c2cc(C(F)F)n3ncc(C(=O)Nc4cn(C)nc4C)c3n2)cc1	.	-0.3
Cc1cccn2c(=O)c(/C=C3\SC(=S)N(CCCC(=O)O)C3=O)c(N3CCCCC3)nc12	-0.19	.
CCOc1ccc(NC(=O)CNC(=O)c2nn(-c3ccc(OC)c(OC)c3)c(=O)c3ccccc23)cc1	-0.78	0.8
CCN(CC)c1ncnc2c1cnn2-c1ccc(C)cc1C	-0.08	0.65
COc1ccc(S(=O)Cc2ccc(C(=O)NC(C)C)o2)cc1 (stereo not drawn)	-0.55	-0.05
CN(C)c1cc(-c2ccc(Cl)c(Cl)c2)oc(=O)c1Cl	0.035	-0.9
CCOC(=O)c1[nH]c(COC(=O)C2COc3ccccc3O2)c(C(=O)OCC)c1C (stereo not drawn)	.	-0.1
CCCOc1ccc(C2Oc3ccc(Br)cc3C3CC(c4ccc(Cl)cc4)=NN32)cc1 (stereo not drawn)	-0.11	.
O=C(O/N=C1\CCS(=O)(=O)c2sccc21)c1ccc(Cl)cc1Cl	-0.47	.
O=C(NCC1CCCO1)c1coc2nc3ccccc3nc12 (stereo not drawn)	.	1.2
COc1ccc(NC(=O)CCCSc2nc3sc(C)c(C)c3c(=O)[nH]2)cc1	0.47	-2.1
N#Cc1ccc(Sc2ccccn2)c([N+](=O)[O-])c1	-0.24	.
O=C(OCC1COc2ccccc2O1)N1CCc2c([nH]c3ccccc23)C1 (stereo not drawn)	0.025	.
N#C/C(N)=C(/C#N)N=Cc1ccccc1Sc1ccc(Cl)cc1	0.06	.
CCc1cccc(NC(=O)C(Cc2ccccc2)NC(=O)C2CCC(C)CC2)c1 (stereo not drawn)	-0.37	1.9
COc1ccc(S(=O)(=O)N2CCCCC2c2cccnc2)cc1 (stereo not drawn)	0.22	0.35
O=C1Nc2ccccc2C12OC1CCCCC1O2 (stereo not drawn)	0.54	-0.8
CC(C)Cn1c(NN)nc2c1c(=O)[nH]c(=O)n2C	.	0.5
Cc1cccc2cc(C#N)c(SCCN3CCCCC3)nc12	.	1.9
O=[N+]([O-])c1cc(Oc2ccc3oc4c(c3c2)CCCC4)cc([N+](=O)[O-])c1	-0.69	.
COc1ccc(CCNC(=S)N(Cc2ccco2)Cc2cc3cc(OC)c(OC)cc3[nH]c2=O)cc1OC	.	-0.4
O=C(CC(c1ccccc1)C1C(=O)NC(=S)NC1=O)c1cccs1 (stereo not drawn)	-0.34	-0.35
O=C(Nc1cc(Cl)ccc1Cl)/C(=C/c1ccc2c(c1)OCO2)NC(=O)c1ccccc1Br	0.93	.
Cc1oc(-c2ccc(C(=O)NC(C)C)cc2)nc1COc1ccccc1	-1.2	1.4
CN(C)C(=O)CCSc1ccc(Cl)cc1	0.32	-0.05
COc1cccc(-n2cnnc2SC(C#N)Cc2ccc(C)cc2)c1 (stereo not drawn)	.	1.8
N#Cc1c(NC(=O)CCCCl)sc2c1CCCC2	-0.41	0.5
O=C(NCc1ccccn1)c1ccc2c(c1)ncn2-c1ccc(OCc2ccccc2)cc1	-0.36	.
Cc1ccsc1/C=C1/CC/C(=C\c2sccc2C)C1=O	0.24	0.1
Cc1ccc2[nH]c(=O)c(-c3noc(-c4ccccc4)n3)cc2c1	15	0.05
Cc1cc2cc(CNS(=O)(=O)N(C)C)ccc2n1C	0.085	-0.35
COc1ccccc1-n1cnnc1SCC(=O)N(C)CC(=O)Nc1ccccc1Cl	.	-2
C#CCSc1nc2ccccc2c(=O)n1-c1ccccc1	.	1
O=C(COc1ccccc1O)Nc1cccc(Br)c1	-0.29	-0.2
O=[N+]([O-])c1ccc(C=Nc2cc(C(F)(F)F)ccc2N2CCOCC2)s1	0.85	.
CC(=O)N[C@@H](Cc1c[nH]c2ccccc12)C(=O)NC1CC1	.	1.2
COc1ccc(C(O)Cc2nc3ccccc3n2C)cc1OC (stereo not drawn)	0.21	-1.2
COC12CCC(CC1)C(O)(C#N)C2 (stereo not drawn)	-0.7	.
CCOc1cc(OCC)c(/C=N/O)c(OCC)c1	1	0.65
CCOC(=O)N1CCC(NC(=O)CSc2nc3ccccc3n2S(=O)(=O)c2ccc(OC)cc2)CC1	-0.57	.
Cc1ccc(CS(=O)Cc2ccc(C(=O)NC3CCCc4ccccc43)o2)cc1 (stereo not drawn)	-0.83	-0.25
N=c1c2c3c(sc2ncn1Cc1ccccc1)CCCC3	0.035	-0.6
O=C(N/N=C/c1ccco1)c1cc(C23CC4CC(CC(C4)C2)C3)[nH]n1	-0.2	-0.1
CCc1ccc(N(CC)C(=O)c2cc3c(=O)n(CC)c4ccccc4c3s2)cc1	0.09	1.1
Cn1c(SCC(=O)c2ccc(Cl)cc2)nnc1C(F)(F)F	0.48	0.05
O=c1c2ccccc2nc(C(F)(F)F)n1-c1ccccc1	-0.15	-0.6
CN(C(=O)CSc1ncc(-c2ccccc2)n1C)C1(C#N)CCCCC1	.	-0.25
CCS(=O)(=O)N1Cc2ccccc2CC1C(=O)NC1=NCCS1 (stereo not drawn)	.	0.25
Nc1nc2c(s1)CCc1nonc1-2	.	1
CC(C)N(Cc1nc(-c2ccccc2)no1)C(=O)Cc1ccccc1	-0.85	0.2
(list continues)
SMILES	CapD inh	AID504770
CCc1ccc(NC(=O)CN(C)S(=O)(=O)c2cccc3cccnc23)cc1	0.83	0.75
CC(C)NC(=O)C1CCCN(S(=O)(=O)c2ccc(-n3cnnn3)cc2)C1 (stereo not drawn)	.	-0.7
CCOC(=O)c1ccc(Cn2c3ccccc3c3nn4cc(-c5ccc(F)cc5)nc4nc32)o1	-0.46	.
CC1Cc2ccccc2N1S(C)(=O)=O (stereo not drawn)	1.1	-0.6
CCOC(=O)c1nnn2c1nc(N(CC)CC)c1ccccc12	-0.22	0.95
COc1ccccc1C1C2CCCC=C2C(C#N)=C(N)C1(C#N)C#N (stereo not drawn)	-0.28	.
CC1(C)NC(C)(C)c2nonc2/C1=N\O	-0.55	-0.1
Oc1ccc(Cl)cc1C=NCCc1c[nH]c2ccccc12	-0.64	0.65
CC12CNCC(C)(CNC1)C2=O	-0.27	1.1
O=C(CC1Oc2ccccc2NC1=O)NC1CC1 (stereo not drawn)	-0.82	-0.8
CC(c1ccccc1F)n1cc(C(=O)NCC2CCCO2)nn1 (stereo not drawn)	.	-0.45
Cc1nn(Cc2ccccc2)c(C)c1CC(=O)O	.	-0.05
CS(=O)(=O)N(CC(=O)N1CCOCC1)c1cccc2ccccc12	.	-0.45
CCOC(=O)c1cn2nc(Oc3ccc(C(=O)OC)cc3)ccc2n1	47	-0.2
CN(Cc1ccccc1)C1CCN(Cc2ccncc2)CC1	-0.23	1.2
CC(=O)N1CCC(N(C(=O)c2cccs2)C2CC2)CC1	-0.61	.

16 structures from above, sorted by length of the SMILES, ascending.
SMILES	CapD inh	AID504770
CC12CNCC(C)(CNC1)C2=O	-0.27	1.1
Nc1nc2c(s1)CCc1nonc1-2	.	1
CC1Cc2ccccc2N1S(C)(=O)=O (stereo not drawn)	1.1	-0.6
CC1(C)NC(C)(C)c2nonc2/C1=N\O	-0.55	-0.1
Cc1nn(Cc2ccccc2)c(C)c1CC(=O)O	.	-0.05
CN(Cc1ccccc1)C1CCN(Cc2ccncc2)CC1	-0.23	1.2
Oc1ccc(Cl)cc1C=NCCc1c[nH]c2ccccc12	-0.64	0.65
O=c1c2ccccc2nc(C(F)(F)F)n1-c1ccccc1	-0.15	-0.6
CC(c1ccccc1F)n1cc(C(=O)NCC2CCCO2)nn1 (stereo not drawn)	.	-0.45
CCS(=O)(=O)N1Cc2ccccc2CC1C(=O)NC1=NCCS1 (stereo not drawn)	.	0.25
CC(C)N(Cc1nc(-c2ccccc2)no1)C(=O)Cc1ccccc1	-0.85	0.2
COc1ccccc1C1C2CCCC=C2C(C#N)=C(N)C1(C#N)C#N (stereo not drawn)	-0.28	.
CN(C(=O)CSc1ncc(-c2ccccc2)n1C)C1(C#N)CCCCC1	.	-0.25
CCc1ccc(NC(=O)CN(C)S(=O)(=O)c2cccc3cccnc23)cc1	0.83	0.75
CC(C)NC(=O)C1CCCN(S(=O)(=O)c2ccc(-n3cnnn3)cc2)C1 (stereo not drawn)	.	-0.7
CCOC(=O)c1ccc(Cn2c3ccccc3c3nn4cc(-c5ccc(F)cc5)nc4nc32)o1	-0.46	.
